# Screening results deposited in PubChem BioAssay by several laboratories.
# RanGTP-Imp inh: inhibitors of RanGTP-importin-beta interaction, primary screen, biochemical, FRET, CFP-Ran, YFP-importin-beta, homogeneous; AID 2216, 2009; cell-free CFP-Ran/YFP-importin-beta FRET ratio; Ran GTPase (GTP-bound) - importin-beta complex; inhibition, % (test concentration not listed); hit rate 1.1% among 300,000;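 active = most replicates above 15%; inconclusive = exactly half above 15%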;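 also: 0% = DMSO wells and 100% = Ran loaded with GDP instead of GTP; wells of about 40 µL received 100 nL stock; the first replicate is given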
# MLL AF4-AF9 inh: inhibitors of AF4 peptide binding to AF9, primary screen, biochemical, AlphaScreen, biotin-AF4 peptide, FLAG-AF9, single point. hit rate 0.47% among 350,000. Protein AF-9 (Homo sapiens), P42568. inhibition, % at 10 µM;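 active = every replicate reaching a set inhibition limit, whatever the replicate mean, cut at about 25% in these data; inconclusive = mean inhibition reaches that limit but some replicates miss it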;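 also: 0% = plate neutral control median and 100% = total signal loss; the record names both 10 and 1 µM as test concentration; the first replicate is given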
# Target sequence (P42568 whole entry, looked up): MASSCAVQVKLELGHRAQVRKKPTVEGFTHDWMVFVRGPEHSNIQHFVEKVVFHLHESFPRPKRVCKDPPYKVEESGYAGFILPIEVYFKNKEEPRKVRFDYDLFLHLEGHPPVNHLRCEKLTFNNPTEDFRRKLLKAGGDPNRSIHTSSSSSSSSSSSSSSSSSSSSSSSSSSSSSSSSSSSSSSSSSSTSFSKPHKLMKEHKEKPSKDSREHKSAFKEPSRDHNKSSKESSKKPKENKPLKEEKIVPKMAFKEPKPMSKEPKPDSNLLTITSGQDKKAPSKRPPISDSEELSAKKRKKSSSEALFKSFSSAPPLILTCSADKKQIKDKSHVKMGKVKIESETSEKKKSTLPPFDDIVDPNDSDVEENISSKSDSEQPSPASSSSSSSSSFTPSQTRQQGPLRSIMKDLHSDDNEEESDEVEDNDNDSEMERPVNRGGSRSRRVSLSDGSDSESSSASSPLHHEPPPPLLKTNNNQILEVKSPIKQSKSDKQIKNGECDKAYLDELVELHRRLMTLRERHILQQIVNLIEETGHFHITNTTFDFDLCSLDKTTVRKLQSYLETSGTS
# Ecoli growth: E. coli growth inhibition, primary screen, OD600; Escherichia coli growth, 23 h; hits give low values; OD600 absorbance (no concentration beside the values); hit rate 0.21% among 330,000;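 active = OD600 absorbance below the run mean of sample wells minus 3.6 SD, in any replicate, cut at about 0.56 in these data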;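 also: stock transfer was 300 nL into about 60 µL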
# UCH37 inh: inhibitors of human UCH37 deubiquitinase, primary screen, biochemical, Ub-AMC cleavage, fluorescence. hit rate 0.33% among 330,000. Ubiquitin carboxyl-terminal hydrolase isozyme L5 (Homo sapiens), Q9Y5K5. AID 588478, 2011. purified proteasome/UCH37. inhibition, % (no concentration beside the values);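 active = mean of two replicates above 20%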;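 also: 0% = compound-free wells with enzyme and 100% = wells lacking proteasome; stock transfer was 100 nL into about 20 µL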
#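 system = Proteasome-associated human UCH37 deubiquitinase | amount = 0.15 nM proteasome as dispensed | medium = pH 7.4 Tris-HCl (50 mM) with ovalbumin, ATP-MgCl2, DTT | incubation = 30 min preincubation with enzyme, 25 min cleavage at room temperature | detection = AMC fluorescence 355/460 nm | read-out basis = percent inhibition | controls = no-proteasome and no-compound wells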
# FGF22 binding: binders of human FGF22 protein, primary screen, FGF22 synaptogenesis inhibitor project, biophysical, thermal shift, single point. Fibroblast growth factor 22 (Homo sapiens), Q9HCT0. recombinant FGF22 thermal shift, SYPRO orange fluorescence; percent of sucrose octasulfate shift, DMSO zero. calls only at 9.99 µM. hit rate 1.5% among 340,000. AID 651658, 2012;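 active = melting point raised past a set limit in the mean and every replicate; inconclusive = no clear call; three in four hits are not shown here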
# Vif A3G: inhibitors of Vif binding to APOBEC3G peptide, primary screen, biochemical, TR-FRET, GST-Vif 1-94, biotin-A3G peptide, dose response retest (AID 1117319); TR-FRET GST-Vif / biotin-A3G peptide binding; higher % means a stronger effect; test concentration not given here; strong numbers were not always called active; one-dose inhibition, %; IC50 in µM for titrated hits; hit rate 0.57% among 260,000;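 active = above the screen mean plus three standard deviations and confirmed in dose response; inconclusive = results disagree or hit not tested in dose response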;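 also: Vif residues 1-94 fused to GST binding biotinylated APOBEC3G peptide 110-148; 0% = full assay without inhibitor and 100% = GST in place of GST-Vif; retest series ran down from 100 µM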
# HNF4A DNA FP: change in binding of human HNF4A to DNA, primary screen, biochemical, fluorescence polarization, FITC-DNA | Hepatocyte nuclear factor 4-alpha (Homo sapiens), P41235 | hit rate 0.3% among 360,000 | 1 h | activity change, % at 10 µM; in the data active = activity change above about 30%, passing the limit was not always enough;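 also: controls were the assay level and a saturating level of protein; the project sought stronger binding though the title names inhibitors; some compounds called inactive have numbers as strong as hits; positive values seem to mean higher polarization but the record does not say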
# Target sequence (P41235 whole entry, looked up): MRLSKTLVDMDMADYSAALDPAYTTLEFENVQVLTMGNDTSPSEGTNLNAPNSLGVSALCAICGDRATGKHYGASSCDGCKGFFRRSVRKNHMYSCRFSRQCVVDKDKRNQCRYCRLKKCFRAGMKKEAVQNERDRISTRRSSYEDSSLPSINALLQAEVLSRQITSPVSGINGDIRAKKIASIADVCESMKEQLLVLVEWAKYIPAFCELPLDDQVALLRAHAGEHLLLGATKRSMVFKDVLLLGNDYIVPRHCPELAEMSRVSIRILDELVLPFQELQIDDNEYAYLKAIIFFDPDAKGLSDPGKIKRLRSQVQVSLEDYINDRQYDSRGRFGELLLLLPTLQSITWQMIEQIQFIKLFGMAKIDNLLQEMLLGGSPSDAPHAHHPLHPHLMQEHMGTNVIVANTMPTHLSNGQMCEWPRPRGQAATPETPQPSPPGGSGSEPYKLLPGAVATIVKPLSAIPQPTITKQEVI
# * = called active by the depositor; i = inactive; ? = inconclusive; · = not tested or not shown; & = joins results of further samples. Not all compounds are listed; the hit share may differ from the screen's.
# Order of values: Ecoli growth	Vif A3G	HNF4A DNA FP	FGF22 binding	UCH37 inh	RanGTP-Imp inh	MLL AF4-AF9 inh
COC(=O)c1ccc(C(=O)N2CCCC(Nc3ccc(C(C)C)cc3)C2)cc1 (stereo not given)
 : 0.672	·	-2.0	i	0.6	11.5	2.0
O=C(Nc1cccc(F)c1)c1ccc(S(=O)(=O)N2CCCC2)cc1
 : 0.695	0.1%	-5.0	i	3.1	?	6.0
Cc1cc(NC(=O)CSc2nc(C(C)C)nc3sc4c(c23)CCC(C)C4)no1 (stereo not given)
 : 0.727	-20.1%	0.1	·	3.5	-0.1	·
CCOc1cccc(C(=O)Nc2ccccc2N2CCN(C(=O)C(C)C)CC2)c1
 : 0.692	25.2%	2.2	·	3.4	6.6	·
O=C(O)C1CCN(C(=O)c2ccco2)CC1
 : 0.714	3.5%	0.5	i	4.0	-0.8	-1.9
COc1ccc(OC(=O)c2cccnc2)cc1
 : 0.757	15.1%	-0.7	·	2.0	2.4	·
COc1cc(CC(=O)Nc2nc(-c3ccccc3)c(C(C)=O)s2)cc(OC)c1OC
 : 0.677	-39.2%	2.3	i	3.6	-0.2	-0.4
COc1ccc(OCc2cc(C(=O)N3CCCCCC3)no2)c(Cl)c1
 : 0.687	0.2%	3.0	i	0.3	0.4	-1.8
COC(=O)c1ccc(NC(=O)c2cc3sccc3n2C)cc1
 : 0.696	-3.6%	-2.4	·	-1.4	0.8	·
COc1ccc2[nH]c3c(c2c1)CCN1C(=O)C(CC(=O)NCCCn2ccnc2)C[C@H](C(=O)N2CCOCC2)[C@@]31CCC1CCCC1 (stereo not given in full)
 : 0.696	·	-0.9	i	-0.4	·	9.1
COc1ccc2[nH]c(=O)c(CN(C(=O)c3ccco3)C(C)C)cc2c1
 : 0.662	·	0.7	i	-43.0	4.3	-0.1
Oc1ccc(C[C@H]2CNC(=S)N2C[C@H]2CCCN2C[C@H](Cc2ccccc2)N2C[C@H](Cc3ccc(O)cc3)N(CC3CCCCCC3)C2=S)cc1
 : ·	·	-1.6	i	·	·	4.7
CCN(CC)S(=O)(=O)c1ccc(C(=O)Nc2ccc(OCC(=O)N3CCOCC3)cc2)cc1
 : 0.673	16.8%&-2.9%	-1.5	·	-0.5	1.6	·
CCCC(c1nnnn1C(C)(C)C)N1CCN(c2ccccc2)CC1 (stereo not given)
 : 0.66	·	-0.8	i	5.9	-4.7	2.1
COc1cccc(S(=O)(=O)N(C)C[C@H]2Oc3ncc(Br)cc3C(=O)N([C@@H](C)CO)C[C@@H]2C)c1
 : ·	-1.5%	2.1	i	·	·	-0.3&-0.7
Cn1c2c(c3ccccc31)CC/C2=N\O
 : ·	2.2%	0.0	·	·	8.5	·
CCCCCCC(=O)N/N=C1\CCCc2ccccc21
 : ·	0.0%	-3.2	i	·	1.4	-1.6
CCC(=O)Oc1ccc(C(=O)Nc2ccc3c(c2)C(=O)N(C2CCCCC2)C3=O)cc1
 : 0.71	-1.9%	38.7*	·	-48.3	-1.0	·
Cc1nc(-c2ccccc2)nc2[nH]c(-c3ccccc3)cc(=O)c12
 : 0.736	-12.7%	2.6	·	3.1	4.4	·
CCN(Cc1ccccc1)C(=O)CN1C(=O)NC(CC)(c2ccc(F)cc2)C1=O (stereo not given)
 : 0.638	-1.9%	10.3	i	-0.7	23.5*	1.7
COc1cccc(NC(=O)CC(=O)c2ccccc2)c1
 : 0.654	5.7%	3.5	i	1.8	-8.1	-10.5
O=C(Oc1c(CN2CCOCC2)cc(Cl)c2cccnc12)c1cccs1
 : 0.674	·	0.9	i	5.6	-7.1	5.0
O=C(CCl)Nc1ccccc1Sc1ccccc1
 : 0.729	0.8%	3.9	·	2.6	6.6	·
CCS(=O)(=O)N1CCN(C2CCC(c3ccccc3)CC2)CC1 (stereo not given)
 : 0.629	-5.8%	3.4	·	4.2	9.4	·
Clc1ccc(C2=Nn3c(nnc3-c3cc(-c4ccccc4)n[nH]3)SC2)cc1
 : 0.71	79.2%	0.5	·	4.4	3.1	·
COC(=O)c1cn(NC(=O)/C=C/c2cccc(OC)c2OC)c(=O)c2ccccc12
 : 0.692	2.6%	·	i	-39.9	7.4	-1.2
COc1cc2c(cc1NC(=O)c1cc(-c3ccccn3)nc3ccccc13)oc1ccccc12
 : 0.756	-3.9%	16.7	i	2.1	4.3	0.2
O=C(NCCSCc1c(F)cccc1Cl)Nc1ccccc1
 : 0.642	-3.5%	1.8	·	2.7	-3.1	·
Cc1ccc(CSCCNC(=O)CN(c2ccc(F)cc2)S(C)(=O)=O)cc1
 : 0.647	·	-0.6	i	3.7	2.3	-0.9
Cn1c(=O)[nH]c(=O)c2c1nc(NCCO)n2CCOc1ccccc1
 : 0.695	·	-0.9	i	3.6	2.7	3.7
Cc1nc2ccc(NC(=S)N3CCOCC3)cc2nc1C
 : 0.68	-6.0%	5.3	i	-7.3	-3.0	-2.5
c1ccc(N2CCN(c3c4c(nc5ncnn35)CCC4)CC2)cc1
 : 0.656	6.4%	0.2	i	4.7	-3.6	7.2
O=C(NCc1ccccc1)C1=C[C@H](c2ccc3c(c2)OCO3)C[C@H](OCc2ccc(CO)cc2)O1
 : ·	·	2.3	i	3.7	1.4	-2.1&-5.0
N#Cc1ccc(OCc2nnc(SCC(=O)c3ccccc3)n2-c2ccccc2)cc1
 : 0.714	-1.3%	-0.8	·	1.5	0.6	·
COc1ccc2sc(-c3ccc(SC)cc3)c(-c3ccc(O)cc3)c2c1
 : 0.704	·	-0.6	i	-10.3	·	-0.7
CCCC(C)C(=O)Nc1ccc(S(N)(=O)=O)cc1 (stereo not given)
 : 0.671	·	1.1	·	0.1	9.2	-0.2
Cc1cccc(NC(=O)C(=O)NNC(=O)c2ccc(C(C)(C)C)cc2)c1
 : ·	·	-1.9	i	·	-2.1	2.1
O=C(NNc1ncnc2c1cnn2-c1ccc(F)cc1)c1cccs1
 : 0.731	-2.1%	-0.9	i	0.1	-3.3	3.0
O=C(NCCCn1ccnc1)C(=O)NCC(c1ccco1)N1CCN(c2ccc(F)cc2)CC1 (stereo not given)
 : 0.722	-2.0%	-0.6	i	3.1	4.5	-17.5
CCOc1nc(-c2ccccc2O)nc2ccccc12
 : 0.676	?	-2.2	i	2.1	0.7	-6.6
O=C(CCCCCN1C(=O)c2cccc3cccc(c23)C1=O)NCc1cccnc1
 : 0.655	·	2.3	i	-65.8	-1.7	·
COc1ccc(S(=O)(=O)Nc2cccc(F)c2C)cc1C(=O)N1CCOCC1
 : 0.679	-0.9%	2.7	i	1.3	8.2	-0.5
CCc1nc2ccc(C(=O)Nc3ccc(OC)c(OC)c3)cn2c1N(CC)Cc1cccc(Br)c1
 : ·	·	0.4	i	·	·	2.6
CCCCc1nnc(NC(=O)c2oc3ccc(OC)cc3c2C)s1
 : 0.69	2.8%	-2.2	i	-58.3	7.8	8.3
CSc1cccc(NC(=O)C2CCN(S(=O)(=O)c3ccc4c(c3)NC(=O)CO4)CC2)c1
 : 0.683	-10.4%	7.0	i	0.6	-3.0	4.1
O=S1(=O)c2ccccc2Nc2ccccc21
 : 0.675	·	0.0	i	-2.3	-0.5	0.1
N=c1n(CCO)c2ccccc2n1CCOc1ccc(Cl)cc1Cl
 : 0.701	-1.0%	-0.5	i	9.7	6.0	3.7
C=C1SC(=Nc2ccccc2Cl)N(C(=O)c2sc3ccccc3c2Cl)C1(C)C
 : ·	·	2.7	i	·	4.4	3.4
O=C(N/N=C/c1ccccc1Cl)C1CC1
 : ·	·	0.6	i	·	0.5	-1.4
COC(=O)CC1(C(=O)OC)Oc2ccc(Br)cc2C(=O)N1c1cc(Cl)cc(Cl)c1 (stereo not given)
 : 0.689	·	1.3	i	2.1	-0.3	-5.1

# Next part:
# Order of values: Ecoli growth	Vif A3G	HNF4A DNA FP	FGF22 binding	UCH37 inh	RanGTP-Imp inh	MLL AF4-AF9 inh
CCOc1ccc(S(=O)(=O)N2CCc3cc(OC)c(OC)cc3C2)cc1
 : 0.69	24.1%	3.7	i	0.0	-2.0	4.8
O=C(NC(Cc1ccccc1)C(=O)O)/C(=C/c1ccccc1)NC(=O)c1ccccc1 (stereo not given)
 : ·	3.1%	-3.0	·	·	-1.9	·
COc1ccc(C)cc1NC(=S)NN1CCN(C)CC1
 : 0.694	15.3%	-0.1	i	4.7	3.8	-1.7
CCN1CCCC1CNC(=O)CSCc1nc(-c2ccccc2C)oc1C (stereo not given)
 : 0.688	2.6%	4.9	·	0.8	-2.4	·
CC(C)CC(=O)Nc1nnc(SCC(=O)NCc2ccco2)s1
 : 0.648	·	1.7	i	2.6	-2.2	-3.3
O=C(CN1C(=O)c2ccccc2C1=O)NCC(=O)Nc1ccccc1
 : ·	-3.4%	4.9	i	·	·	2.0
O=C(Nc1ccc2c(c1)CCCN2C(=O)c1cccs1)c1ccccc1
 : 0.629	·	-6.7	i	5.3	1.6	-0.6
CC(C)n1ncc2c(C(=O)N3CCN(c4ccc(F)cc4)CC3)cc(-c3ccccc3)nc21
 : 0.74	-0.9%	-2.3	i	0.2	·	3.8
O=C(O)Cn1nnc(-c2ccccc2)c1COc1ccccc1
 : ·	·	-0.8	i	·	·	-6.4
O=C(CSc1nnc(Nc2ccccc2F)s1)NCC1CCCO1 (stereo not given)
 : 0.624	-1.2%	0.2	i	0.3	·	2.1
Cc1ccc(N2CC(C(=O)OCC(=O)c3ccc(C)c([N+](=O)[O-])c3)CC2=O)cc1 (stereo not given)
 : 0.721	-2.1%	19.8	i	0.6	1.0	-0.2
CC(C(O)c1cc(=O)c(OCc2ccccc2)co1)[N+](=O)[O-] (stereo not given)
 : 0.667	·	-3.6	i	0.6	?	-0.4
S=c1[nH]nc(-c2cc(-c3ccccc3)n[nH]2)n1/N=C/c1cccs1
 : ·	22.6%	-1.8	i	·	3.3	-10.2
COC(=O)c1c(N)nc(C)n1-c1ccc(OC)cc1
 : 0.642	-5.8%	-0.9	·	3.0	2.5	·
COc1ccc(Cl)c(Cn2c(NCCCN(C)C)nc3c2c(=O)n(C)c(=O)n3C)c1
 : 0.747	1.9%	-1.6	·	1.1	0.7	·
Cc1ccc(CNC(=O)C2CCCN(S(=O)(=O)c3ccc(-n4cnnn4)cc3)C2)cc1 (stereo not given)
 : 0.622	·	1.1	i	3.1	-2.0	3.7
Cc1cc(C)cc(C(=O)Nc2nnc(SCC(=O)N3CCCc4ccccc43)s2)c1
 : 0.771	·	-3.7	i	0.6	4.8	2.5
Clc1ccc(C2CC(c3cccs3)n3ncnc3N2)cc1Cl (stereo not given)
 : 0.718	1.0%	5.9	i	4.1	?	6.8
CC(C)c1nnc(NC(=O)C2CCN(C(=O)c3ccco3)CC2)s1
 : 0.691	·	-2.9	i	-0.7	?	-5.4
COC(=O)c1cn(CC(=O)N2C(C)CCCC2C)c2ccccc12 (stereo not given)
 : 0.671	·	0.8	·	-0.5	4.8	·
CCCCN(C)C(=O)CCC(=O)NNc1nc2ccccc2c2nc(C)nn12
 : 0.68	·	-7.1	·	5.3	1.4	·
CC(c1nnc(SCC(=O)Nc2ccc3[nH]c(=O)[nH]c3c2)n1Cc1ccccc1)N(C)C (stereo not given)
 : 0.698	2.2%	1.9	·	-0.3	2.2	·
Cc1nc2nc(C)c(NS(=O)(=O)c3ccc(Cl)s3)c(=O)n2[nH]1
 : 0.652	·	1.2	i	0.0	7.2	-0.6
